Screens (PubChem)
FGF22 binding: binders of human FGF22 protein, primary screen, FGF22 synaptogenesis inhibitor project, biophysical, thermal shift, single point; recombinant FGF22 thermal shift, SYPRO orange fluorescence; percent of sucrose octasulfate shift, DMSO zero; hit rate 1.5% among 340,000; Fibroblast growth factor 22 (Homo sapiens), Q9HCT0; calls only at 9.99 µM;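 active = melting point raised past a set limit in the mean and every replicate; inconclusive = no clear call; three in four hits are not shown here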
Target sequence (Q9HCT0 whole entry, looked up): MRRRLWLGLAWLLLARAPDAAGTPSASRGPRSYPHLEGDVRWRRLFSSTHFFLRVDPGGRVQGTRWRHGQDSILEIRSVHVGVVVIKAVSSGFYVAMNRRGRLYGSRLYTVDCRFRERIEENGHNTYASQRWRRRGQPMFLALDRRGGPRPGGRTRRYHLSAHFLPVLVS
T cruzi repl: inhibitors of intracellular T. cruzi growth, primary screen, luminescence, NIH3T3 host cells | AID 1885, 2009 | inhibition, % (test concentration not listed) | T. cruzi beta-gal in NIH3T3, 90 h | hit rate 1.4% among 300,000;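 active = mean inhibition across valid replicates above about 55%, limit read from the data; inconclusive = mean below that limit but half or more replicates reach it; inactive = mean below it, under half of replicates reach it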;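 note: signal also drops with host cell toxicity which is not excluded here; 0% = plate median of DMSO wells and 100% = zero luminescence signal; higher percent means less beta-gal luminescence so fewer parasites; stock transfer was 50 nL into about 50 µL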
ALR H2O2 inh: inhibitors of human ALR sulfhydryl oxidase, primary screen, biochemical, H2O2 detection, HRP-luminol luminescence, single point. FAD-linked sulfhydryl oxidase ALR (Homo sapiens), P55789. purified ALR, DTT oxidation. hit rate 3.8% among 290,000. inhibition, % (concentration not given with the values);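 active = mean and each replicate at 75% or more; inconclusive = only one of the two met; inactive = neither met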;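 note: stock transfer was 7.5 nL into about 7.5 µL; 0% = neutral wells and 100% = wells with inactivated enzyme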
Target sequence (P55789 whole entry, looked up): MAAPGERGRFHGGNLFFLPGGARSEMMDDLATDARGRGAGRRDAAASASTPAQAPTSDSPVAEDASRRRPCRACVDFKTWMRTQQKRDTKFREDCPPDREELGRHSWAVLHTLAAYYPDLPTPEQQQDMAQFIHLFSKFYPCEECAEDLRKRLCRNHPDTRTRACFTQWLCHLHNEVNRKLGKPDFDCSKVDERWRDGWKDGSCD
RanGTP-Impb inh: inhibitors of RanGTP-importin-beta interaction, primary screen, biochemical, FRET, CFP-Ran, YFP-importin-beta, homogeneous; Ran GTPase (GTP-bound) - importin-beta complex; cell-free CFP-Ran/YFP-importin-beta FRET ratio; inhibition, % (concentration not given with the values); hit rate 1.1% among 300,000; AID 2216, 2009;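 active = most replicates above 15%; inconclusive = exactly half above 15%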;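 note: 0% = DMSO wells and 100% = Ran loaded with GDP instead of GTP; wells of about 40 µL received 100 nL stock; the first replicate is given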
AF4-AF9 inh: inhibitors of AF4 peptide binding to AF9, primary screen, biochemical, AlphaScreen, biotin-AF4 peptide, FLAG-AF9, single point. inhibition, % at 10 µM. hit rate 0.47% among 350,000;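 active = every replicate reaching a set inhibition limit, whatever the replicate mean, cut at about 25% in these data; inconclusive = mean inhibition reaches that limit but some replicates miss it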;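 note: 0% = plate neutral control median and 100% = total signal loss; the record names both 10 and 1 µM as test concentration; the first replicate is given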
Target sequence (P42568 whole entry, looked up): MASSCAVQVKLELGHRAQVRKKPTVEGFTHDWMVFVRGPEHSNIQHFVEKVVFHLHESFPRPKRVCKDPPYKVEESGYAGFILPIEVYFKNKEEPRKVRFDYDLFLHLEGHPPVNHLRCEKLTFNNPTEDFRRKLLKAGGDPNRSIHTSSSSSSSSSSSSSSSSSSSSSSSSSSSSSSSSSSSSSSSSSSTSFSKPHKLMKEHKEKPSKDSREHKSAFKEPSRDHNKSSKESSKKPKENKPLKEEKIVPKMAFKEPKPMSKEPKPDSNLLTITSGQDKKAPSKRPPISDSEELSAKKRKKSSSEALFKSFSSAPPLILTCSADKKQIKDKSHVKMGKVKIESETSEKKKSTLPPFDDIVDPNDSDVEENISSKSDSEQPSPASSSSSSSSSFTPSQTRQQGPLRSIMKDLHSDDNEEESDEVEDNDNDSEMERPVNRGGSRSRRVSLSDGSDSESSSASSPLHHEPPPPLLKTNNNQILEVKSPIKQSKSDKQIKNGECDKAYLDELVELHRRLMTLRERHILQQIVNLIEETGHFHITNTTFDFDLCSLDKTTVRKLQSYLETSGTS
Beta cell apopt: inhibitors of cytokine-induced beta cell apoptosis, primary screen, luminescence; hit rate 0.8% among 300,000; INS-1E cytokine-induced death, ATP luminescence, 48 h; percent of positive-control rescue, neutral wells zero; AID 435005, 2010; protection from apoptosis, % (no concentration beside the values);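 active = all replicates at 75% or more, or half of them and the mean; inconclusive = half reach 75% but not the mean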;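 note: 0% = cytokine-treated negative control wells and 100% = positive control rescue; higher means more ATP so stronger rescue from cytokine killing; wells of about 40 µL received 100 nL stock; the first replicate is given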
Calb FLC: C. albicans growth inhibition with fluconazole, primary screen, CaCi-2 strain, Alamar Blue fluorescence; hit rate 0.57% among 300,000; C. albicans CaCi-2 (fluconazole-resistant clinical isolate) + fluconazole, 48 h; growth inhibition, % (test concentration not listed);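 active = most replicates above 75%; inconclusive = exactly half above 75%; inactive = most below 75%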;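 note: all wells also contain fluconazole at 8 µg/ml as a sub-toxic cotreatment; 0% = median of DMSO wells and 100% = median of geldanamycin control wells; wells of about 8 µL received 7.5 nL stock; the first replicate is given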
rRNA inh HTS: reduced GFP signal of wild-type E. coli, primary screen, bacterial rRNA inhibitor project, GFP/RFP fluorescence, OD600, single point. E. coli WT GFP vs humanized-ribosome RFP mutants, 24 h; hits give low values; DMSO median 0, no signal -100. GFP signal change (wild-type ribosome), % (test concentration not listed). hit rate 1.6% among 350,000. AID 720706, 2013;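 active = significant combined selectivity score with lowered wild-type GFP, culture density cut under 30%, mutant RFP and density less affected; inactive = any of these conditions unmet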; note: one replicate is shown; some compounds called inactive have numbers as strong as hits
rRNA inh HTS OD600: recorded beside rRNA inh HTS, whose call it bears; OD600 change, %; measured here: OD600 growth;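 optical density of the mix in the first replicate; 0 = DMSO median and -100 = no signal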
rRNA inh HTS RFP: recorded beside rRNA inh HTS, whose call it bears; RFP signal change, %; measured here: RFP humanized mutant strains;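 first replicate; 0 = DMSO median and -100 = no signal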
An asterisk follows results filed as active; i = inactive; ? = inconclusive; / = not tested or not shown. The list is partial (hit frequency here may not be typical).

SMILES	FGF22 binding	T cruzi repl	ALR H2O2 inh	RanGTP-Impb inh	AF4-AF9 inh	Beta cell apopt	Calb FLC	rRNA inh HTS	rRNA inh HTS OD600	rRNA inh HTS RFP
O=C(NNC(=O)C1CCCCC1)c1ccco1	i	4	-3	?	-2.2	0	13	9	14	-0.2
O=C(NCC1CCCO1)C1c2ccccc2C(=O)N1Cc1ccc2c(c1)OCO2 (stereo not given)	/	-7	/	-1.7	/	-8	-3	/	/	/
O=C(O)CNC(=S)N(Cc1ccco1)Cc1ccccc1Cl	i	-22	/	-1.1	-2.3	-5	2	-8	2	1.0
C/C(=N\NC(=O)c1cc(C)nc2ccc(C)cc12)c1ccncc1	i	-18	-6	0.0	-0.9	5	43	14	20	4.8
O=C(N1CCN(c2ccccc2)CC1)C12CC3CC(CC(C3)C1)C2	/	-2	65	0.9	/	4	-8	-6	-14	-5.0
COC(=O)c1nn(-c2ccccc2)c(=O)cc1O	i	-18	5	-3.9	0.1	2	1	16	21	-0.9
CC(=O)c1ccc(NC(=O)C[n+]2ccccc2)cc1	i	-5	3	-2.3	-1.4	/	1	3	5	0.6
CN(C1CCCCC1)S(=O)(=O)Cc1ccccc1	i	4	-17	-1.9	-1.1	-3	-35	-9	-18	3.1
O=C(Nc1ccc(F)c(Cl)c1)C1CC(=O)N(Cc2ccccc2)C1 (stereo not given)	i	1	-2	1.9	1.5	-1	0	-1	0	-1.0
Cc1oc2ccc(NS(=O)(=O)c3ccc(F)cc3)cc2c1C(=O)O	i	-13	0	-0.6	-8.5	-7	13	7	-1	0.8
O=C1CSC(=S)N1c1ccc(F)cc1	/	-31	/	-1.2	/	-4	2	/	/	/
CC(=O)Nc1cccc(NC(=O)CSc2nc(=O)n(Cc3ccccn3)c3c2CCC3)c1	i	4	98*	2.0	0.8	-5	-3	-5	-3	-2.4
COC(=O)Cn1c(=NC(=O)c2ccc(S(=O)(=O)N3CCc4ccccc4C3)cc2)sc2cc(OC)ccc21	/	-4	-4	23*	/	-5	-11	/	/	/
Cc1ccccc1NC(=S)NCCC(c1ccccc1)c1ccccc1	/	11	-2	2.2	/	5	4	/	/	/
Cc1ccc(Cn2c(SCC(=O)N/N=C/c3ccc(C)o3)nc3ccccc32)cc1	/	9	0	-3.8	/	10	2	/	/	/
COc1cccc(C2/C(=C(/O)c3cnn(-c4ccccc4)c3C)C(=O)C(=O)N2CCN(C)C)c1 (stereo not given)	/	-30	8	3.8	/	1	19	/	/	/
O=C(Cc1cccs1)Nc1cccnc1	/	4	-4	1.5	/	-7	8	8	2	0.0
COc1ccc(CNC(=O)[C@H](C)NC(=O)C2CCN(S(=O)(=O)c3ccc(C)cc3)CC2)cc1	/	-23	-1	5.4	/	-9	-5	/	/	/
O=c1c2cc(Br)ccc2[nH]c(=S)n1Cc1cccnc1	/	12	-13	-0.3	/	0	-1	/	/	/
Cc1nc(C)c(-c2csc(Nc3ccc(S(N)(=O)=O)cc3)n2)s1	i	-9	-1	-0.5	0.9	/	-3	-19	-24	-3.0
Cc1cccc(NC(=O)c2cc(-c3cccnc3)nc3c(C)cccc23)n1	i	11	-3	6.1	2.5	-1	0	8	4	1.1
O=C(NN=C(c1ccccc1)c1ccccn1)c1ccccc1	i	/	0	/	1.1	103*	/	/	/	/
COC(=O)c1ccccc1NC(=O)CN1CCC(n2nnc3cc(C(F)(F)F)ccc32)CC1	/	12	-5	1.0	/	5	-5	/	/	/
Nc1ccc2c(c1)C(=O)c1ccccc1-2	i	19	1	-1.2	16	5	2	-3	7	-3.9
O=C(CSc1nnnn1-c1ccc2c(c1)OCCO2)N1CCc2ccccc21	i	13	-9	-6.9	-0.7	/	-7	3	8	-3.1
Next part
SMILES	FGF22 binding	T cruzi repl	ALR H2O2 inh	RanGTP-Impb inh	AF4-AF9 inh	Beta cell apopt	Calb FLC	rRNA inh HTS	rRNA inh HTS OD600	rRNA inh HTS RFP
Brc1cnc2nc(SCc3nc4ccccc4[nH]3)[nH]c2c1	i	2	-1	-0.5	-1.7	-10	-1	7	13	19
COc1cccc(N2CCN(C(=S)Nc3cccc(C)c3)CC2)c1	/	-39	-17	0.3	/	-8	-7	/	/	/
Cc1cccc(-c2nsc(SCC(=O)Nc3ccc4c(c3)OCO4)n2)c1	/	17	6	2.4	/	9	21	/	/	/
O=C(OCc1c(Cl)cccc1Cl)c1cccnc1	/	9	4	-1.7	/	-3	-1	/	/	/
COc1ccc(S(=O)(=O)N2CN3CCN(C3)C2)cc1OC	i	3	-14	3.2	-5.4	-1	-9	10	11	-1.0
S=C1NC[C@H](c2ccccc2)N1CC1CCCCC1	i	-2	1	-0.7	0.9	-2	12	-35	-52	-7.5
COc1ccc(C(C(=O)NC2CCCC2)N(Cc2ccccc2)C(=O)CNC(=O)c2ccco2)cc1 (stereo not given)	/	-9	0	1.7	/	-5	28	/	/	/
COc1cccc(/C=C/C(=O)OC(C)C(=O)Nc2c(C)n(C)n(-c3ccccc3)c2=O)c1 (stereo not given)	i	-9	6	-3.3	-2.6	-2	-11	27	19	3.1
CC(NS(=O)(=O)c1ccc(OCC(=O)NCc2cccnc2)cc1)c1ccccc1 (stereo not given)	i	-4	-1	-1.3	?	-4	-1	7	12	-0.2
Nc1cc(OC(=O)c2ccc(F)cc2)nn1S(=O)(=O)c1ccc(F)cc1	i	0	3	-3.9	0.5	-3	3	2	2	-1.9
Nc1ccccc1OCCOCCOCCOc1ccccc1N	/	11	97*	3.6	/	2	-14	/	/	/
Cc1ccc(C)c(OCCC(=O)Nc2cccc(S(=O)(=O)NC3=NCCCCC3)c2)c1	i	/	-1	/	-0.4	-4	/	-22*	-15*	4.8*
O=C(NCc1ccccc1)NC(=O)c1ccccc1	/	-9	-4	-0.4	/	-1	0	/	/	/
COCCCn1c(=O)/c(=C\c2ccc(OC(F)F)c(OC)c2)s/c1=C(/C#N)C(N)=O	i	13	/	-173	-4.3	7	-2	10	6	-1.8
C=CCNC(=S)N1CCN(CCN=CC2=C(O)CC(c3ccco3)CC2=O)CC1 (stereo not given)	/	-20	-7	1.1	/	-10	-6	/	/	/
N/C(CSc1ncccc1C(F)(F)F)=N\O	i	/	23	-1.5	-4.2	/	4	7	-4	-1.4
CCOC(=O)N1CCC(n2c(=S)[nH]c3cc(OC)c(OC)cc3c2=O)CC1	/	-9	5	-2.8	/	5	4	/	/	/
CCCCNC(=O)C1Cc2cc(S(=O)(=O)N3CCCCC3)ccc2N1C(C)=O (stereo not given)	i	-2	-2	-6.2	-1.3	-3	10	5	8	-4.5
CC(C)(C)c1ccc(CNc2cc(N3CCOCC3)ccc2[N+](=O)[O-])cc1	/	22	0	-4.0	/	22	-4	/	/	/
Cc1cc(NC(=O)c2ccc(Cl)c([N+](=O)[O-])c2)no1	i	-17	1	3.4	4.5	-8	-3	6	-10	-4.8
CC(CCc1ccc(O)cc1)N1CCC(Oc2ccc(C(=O)N3CCCC3)cc2)CC1 (stereo not given)	i	1	21	-1.4	3.4	-2	-9	1	-4	-2.0
COc1ccc(NC(=S)Nc2ccc3cn[nH]c3c2)cc1	i	-3	100*	-0.1	-22	-30	14	2	3	4.1
Cc1ccc(N2C(=O)C3C4C=CC(CC4)C3C2=O)cc1[N+](=O)[O-] (stereo not given)	i	2	-10	-0.8	1.8	-1	4	0	-9	-7.9
O=C(O)CCC(=O)Nc1ccc(Br)cc1C(=O)c1ccc(Cl)cc1	i	0	/	-0.9	-26	-11	-1	0	1	3.7
CC(C)CSC1=NSC2=NC(=O)/C(=C\c3coc4ccccc4c3=O)C(=N)N12	/	-9	72	-99	/	1	12	/	/	/
(cont.)
SMILES	FGF22 binding	T cruzi repl	ALR H2O2 inh	RanGTP-Impb inh	AF4-AF9 inh	Beta cell apopt	Calb FLC	rRNA inh HTS	rRNA inh HTS OD600	rRNA inh HTS RFP
CCOC(=O)c1ccc(NC(=S)NCCCn2ccnc2)cc1	i	-6	35	0.7	3.3	15	-5	-7	-3	1.2
CCCCN(CC)S(=O)(=O)c1ccc(C(=O)Nc2nnc(CSC)o2)cc1	/	0	-3	-1.8	/	-2	-5	/	/	/
O=C(O)c1ccc2c(c1)C(=O)N(c1ccccc1-c1ccccc1)C2=O	i	-7	-12	1.5	-2.2	-3	-11	/	/	/
CC(=O)n1cc([C@H]2C=C(C(=O)O)O[C@@H](OCCCCO)C2)c2ccccc21	i	5	6	5.8	-0.9	-2	-7	3	-3	14
Cc1ccc(C(=O)N2CCN(c3ccc(F)cc3)CC2)cc1S(=O)(=O)N1CCCCC1	i	8	4	1.4	4.5	6	1	-8	-49	-1.9
CC(C)=CC(=O)Nc1ccc(S(=O)(=O)Nc2onc(C)c2C)cc1	i	-7	10	-8.9	-11	-5	-3	11	6	2.0
O=c1[nH][nH]cc1C=Nc1ccc(Cl)cc1Cl	i	10	53	-2.7	-6.2	-1	-7	8	7	0.3
Cc1cc(C)c2c(c1)SC1=NC(c3ccccc3)(C(F)(F)F)NC(=O)N12 (stereo not given)	/	-17	-7	0.2	/	-13	21	/	/	/
Cc1ccc(N2CC(=O)N(NC(=O)Nc3ccc(Cl)c(Cl)c3)CC2=O)cc1	i	-14	/	-5.0	2.8	3	2	15	3	-1.2
O=C(NC(NNc1ccc([N+](=O)[O-])cc1)(C(F)(F)F)C(F)(F)F)c1ccc(F)cc1	/	3	69	-4.3	/	15	-21	/	/	/
COc1ccc(N2CCN(C(=O)[C@H](C)N3C(=O)C4CC=CCC4C3=O)CC2)cc1 (stereo not given in full)	i	/	72	/	-2.0	6	/	4	6	-0.8
COc1ccccc1N(C(=O)CNC(=O)c1ccco1)C(C(=O)NCC1CCCO1)c1ccccc1 (stereo not given)	i	-4	-7	-6.9	-1.2	-5	0	5	-1	-2.4
CC1(C)CC(N2CCC(=O)NC2=S)CC(C)(C)N1	i	-3	5	0.7	-6.4	-2	5	11	9	-3.2
CNC(=O)C(=O)Nc1c(O)c2ccccc2[nH]c1=O	i	-4	4	3.8	3.7	-8	3	6	7	1.1
O=C(NCC(c1cccs1)N1CCOCC1)c1cc(=O)[nH]c2ccccc12 (stereo not given)	i	-2	-7	2.3	-17	3	/	6	7	-1.1
Cc1ccccc1NC(=O)CSCCN1C(=O)c2ccccc2C1=O	i	-23	-1	1.7	-0.8	4	-9	9	10	-0.5
CCOC(=O)CSc1ccc2nnc(-c3cccs3)n2n1	i	-5	24	2.8	-9.4	-2	-28	-6	-15	-0.3
O=C1C2C3C=CC(C3)C2C(=O)N1c1n[nH]c(CCc2ccccc2)n1 (stereo not given)	/	1	0	1.6	/	-3	?	/	/	/
